# Hsc70: Hsc70 inhibitors, probe displacement, primary screen, biochemical, fluorescence polarization (AID 568). Hsc70 fluorescence polarization, probe displacement; higher % means a stronger effect; strong numbers were not always called active. displacement, % at 20 µM; hits with a dose series show IC50 in µM. 83,000 tested, under 10 active;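 active means displacement above 50% without optical interference and an IC50 on retest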;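 further: ATPase domain with a fluorescein-tagged ATP probe; 0% = vehicle and 100% = excess ADP; read after one hour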
# WNV NS2B-NS3 inh: inhibitors of WNV NS2B-NS3 protease, primary screen, biochemical, fluorogenic substrate; Genome polyprotein (West Nile virus), P06935; fluorogenic substrate Ex360/Em465; hits give low values; z-score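 (tested at a level between 10 and 100 µM)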; 65,000 compounds, 0.18% hits;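 active means z-score at -3 or under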;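 further: score is relative to mean and spread of the compound wells of a plate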
# Target sequence (P06935 1371-1501 limits assumed): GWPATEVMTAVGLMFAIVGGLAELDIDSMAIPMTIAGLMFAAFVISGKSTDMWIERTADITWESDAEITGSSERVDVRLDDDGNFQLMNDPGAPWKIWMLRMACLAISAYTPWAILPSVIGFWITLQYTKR
# Target sequence (P06935 1502-1679 limits assumed): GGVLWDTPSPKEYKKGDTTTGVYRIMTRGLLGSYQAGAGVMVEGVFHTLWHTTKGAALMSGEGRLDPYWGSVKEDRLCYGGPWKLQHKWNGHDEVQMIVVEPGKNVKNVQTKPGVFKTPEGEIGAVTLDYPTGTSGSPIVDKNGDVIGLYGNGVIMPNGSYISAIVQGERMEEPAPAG
# MT1-MMP promoter: inhibitors of MT1-MMP promoter transcription, cell-based, luciferase reporter, luminescence (AID 618); MT1-MMP promoter luciferase reporter cells, luminescence; calls from a first round at 10 µM; hits with a dose series show EC50 in µM; 87,000 compounds, 0.62% hits;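 active means over half of the reporter light lost at 10 µM or EC50 under 50 µM; inactive means the rest and hits that failed the dose series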;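 further: actives suppress MT1-MMP promoter-driven transcription so potencies describe inhibitors; HT1080 fibrosarcoma cells; overnight exposure; toxic or luciferase-blocking compounds were not removed from the actives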
# An asterisk follows results filed as active; i = inactive; / = not tested or not shown. A portion of the library (hit frequency here may not be typical).
# Values in the order: Hsc70	WNV NS2B-NS3 inh	MT1-MMP promoter
- CCN1CCN(C(C(=O)NC2CCCC2)c2ccc(Cl)cc2)CC1 (stereo unspecified)
 : -1.2%	-0.81	i
- CN(C)C(=O)CSc1nnc(CCCCCNC(=O)OC(C)(C)C)o1
 : -1.3%	0.19	i
- COc1ccc(S(=O)(=O)Nc2ccc(F)c(Cl)c2)cc1OC
 : -6.9%	-0.56	i
- CCOC(=O)c1cccc(N2C(=O)C3C(C2=O)C2C=CC3C23CC3)c1 (stereo unspecified)
 : 4.5%	/	i
- c1ccc2[nH]c(CN3CCCCCC3)nc2c1
 : -7.3%	-0.06	i
- COC(=O)c1sccc1-n1cccc1C(=O)C(=O)N1CCCCC1
 : 4.4%	/	i
- COc1ccc(-n2c(C)nc3c(cnn3-c3ccc(C)c(C)c3)c2=O)cc1
 : -1.6%	0.37	i
- c1ccc2[nH]c(SCCN3CCOCC3)nc2c1
 : 7.0%	-0.7	i
- CCn1cnc2sc(C(=O)Nc3ccc4c(c3)OCO4)c(C)c2c1=O
 : -2.2%	-1.6	i
- CC(=O)c1cccc(NS(=O)(=O)c2c(C)noc2C)c1
 : 0.1%	1.8	i
- Cc1sc2c(c1C)c(=O)nc1scc(C)n12
 : -5.5%	/	i
- CC(=O)c1ccc(NC(=O)c2cc(CC(C)C)on2)cc1
 : -5.6%	-0.15	i
- C=CCNC(=O)CN1C2CCCC1CC(NC(=O)c1ccccc1C)C2 (stereo unspecified)
 : 0.4%	-0.8	i
- COc1cc(-c2noc(CCCC(=O)NC3CCCCC3)n2)cc(OC)c1OC
 : 3.6%	/	i
- Cn1c(SCC(=O)N2CCN(Cc3ccccc3)CC2)nnc1-c1ccncc1
 : 6.8%	-1.2	i

# A second format for some results above:
Compound | Hsc70 | WNV NS2B-NS3 inh | MT1-MMP promoter
COc1cc(-c2noc(CCCC(=O)NC3CCCCC3)n2)cc(OC)c1OC | 3.6% | / | i
Cc1sc2c(c1C)c(=O)nc1scc(C)n12 | -5.5% | / | i

# New compounds follow
# Values in the order: Hsc70	WNV NS2B-NS3 inh	MT1-MMP promoter
- CCCOc1ccc(/C(O)=C2/C(=O)C(=O)N(CCCn3ccnc3)C2c2ccco2)cc1 (stereo unspecified)
 : 1.6%	/	i
- CCS(=O)(=O)NCCc1cc2ccc(C)cc2[nH]c1=O
 : -3.3%	0.92	i
- CCCSc1nc(N)c(C#N)c(-c2ccc(C)cc2)c1C#N
 : -1.7%	0.14	i
- O=C(NCCN1CCOCC1)c1ccc(F)cc1
 : -5.3%	/	i
- COc1ccc(OC)c(C(=O)CSc2nnnn2C)c1
 : -5.2%	0.81	i
- CCCCn1c(SCC(=O)Nc2cc(C)on2)nc2ccsc2c1=O
 : 0.1%	-0.26	i
- CCOC(=O)C1=C(C)N(C)C(C)=C(C(=O)OCC)C1c1ccncc1
 : 1.8%	0.86	i
- N#CCSc1nnc(C2CCCCC2)n1Cc1ccccc1
 : -2.5%	1.3	i
- O=C(CCC(=O)CCN1CCCCC1)CCN1CCCCC1
 : 2.9%	0.65	i
- CCc1ccc2oc(=O)cc(CN3CCCCC3C)c2c1 (stereo unspecified)
 : 2.0%	-0.72	i
- COc1ccc(CCNC(=O)CC2Nc3cc(C)c(C)cc3NC2=O)cc1OC (stereo unspecified)
 : 0.0%	-0.0069	i
- Oc1c(C=Nc2cccc3cccnc23)sc2ccccc12
 : -74%	/	i
- CS(=O)(=O)N1CCc2cc(-c3csc(NC(=O)Cc4cccs4)n3)ccc21
 : 1.4%	0.27	i
- O=S(=O)(c1ccc(N2CCCC2)nc1)N1CCOCC1
 : -5.0%	/	i
- COc1ccc(C2CC(C(F)(F)F)n3ncc(C(=O)NCc4cccnc4)c3N2)cc1OC (stereo unspecified)
 : -5.6%	0.86	i
- CCc1cc(=O)oc2cc(OCC(=O)OC)c(Cl)cc12
 : -4.7%	2.1	i
- Cn1c(COc2ccccc2)nnc1SCc1nc2ccccc2[nH]1
 : -6.1%	0.73	i
- CC(=O)C1=C(C)Nc2ncnn2C1c1cccc(OCc2ccccc2)c1 (stereo unspecified)
 : 1.2%	0.81	i
- CC(C)(C)OCC(NC(=O)C(CC(N)=O)NC(=O)OC(C)(C)C)C(=O)OC(C)(C)C (stereo unspecified)
 : 6.3%	-0.6	i
- CCN(C(=O)c1cc(Cl)ccc1OC)C1CCCCC1
 : 7.2%	-0.52	i
- CCOC(=O)CN1C(=O)C(O)=C(C(C)=O)C1c1ccccc1 (stereo unspecified)
 : 2.9%	-0.54	i
- COCc1cc(C)nc(SCC(=O)Nc2cccc3cccnc23)c1C#N
 : -3.9%	-0.86	i
- O=C(Nc1nccs1)Oc1ccccc1
 : -0.4%	0.26	i
- COc1ccc(NC(=O)CS(=O)CC(=O)NC2CCCc3ccccc32)cc1 (stereo unspecified)
 : 1.6%	2.3	i
- CCc1cccc(C)c1NC(=O)C1CCCO1 (stereo unspecified)
 : 8.6%	0.22	i
- COc1ccc(C2c3c(oc4ccccc4c3=O)C(=O)N2CC2CCCO2)cc1 (stereo unspecified)
 : -0.6%	0.01	i
- CCOCCn1c(=O)c2c(nc3n2CCN3c2ccccc2)n(C)c1=O
 : -1.3%	1.4	i
- Cc1ccc(S(=O)(=O)CC(=O)NC(C)(C)C)cc1
 : -1.8%	/	i
- OCCN(CCO)CC(O)Cn1c2ccccc2c2ccccc21 (stereo unspecified)
 : 4.9%	0.009	i
- Cc1ccc(S(=O)(=O)N2C(=S)SCC2(C)C)cc1
 : 4.4%	1	i
- O=C(NCc1ccccc1)N[C@@H](Cc1ccccc1)C(=O)O
 : 1.4%	0.35	i
- CCCCN(CC)c1nc(-c2ccncc2)nc2ccccc12
 : -2.3%	/	i
- CC1(C)Cc2c(ccc3ccccc23)/C(=C/C(=O)N2CCCCC2)N1
 : 2.5%	/	i
- O=C(Nc1ccc(Oc2ccccc2)cc1)C1CCCO1 (stereo unspecified)
 : 2.7%	0.36	i
- Cn1c(NC(=O)CCC2CCCCC2)cc(=O)n(C)c1=O
 : 1.2%	-0.95	i
- CC(C)c1nnc(NC(=O)c2c(O)c3cccc4c3n(c2=O)CCC4)s1
 : 1.6%	-2.5	i
- O=C(CSCCNS(=O)(=O)c1ccccc1)Nc1ccccc1
 : -2.4%	1.7	i
- Cc1noc(NS(=O)(=O)c2ccc(NC(=O)CSc3n[nH]c(-c4ccccc4)n3)cc2)c1C
 : 0.9%	-0.33	i
- Nc1n[nH]c(S(=O)(=O)CCCc2ccccc2)n1
 : 5.3%	0.77	i
- CCC(=O)n1nc(NCc2ccc(OC)c(OC)c2)nc1NCc1ccc(OC)c(OC)c1
 : 2.0%	-0.16	i
- CC(=O)c1c(C)n(CCO)c2ccc(O)cc12
 : -2.2%	/	i
- COc1ccccc1N(C)S(=O)(=O)c1ccc(C(=O)N(CC(N)=O)C(C)C)cc1
 : -1.2%	/	i
- Cc1ccc(S(=O)(=O)N2CCOCC2)cc1C(=O)NCc1ccc2c(c1)OCO2
 : -0.8%	/	i
- CCSc1nnc2c(n1)OC(c1ccc(C(=O)O)cc1)N(C(C)=O)c1ccccc1-2 (stereo unspecified)
 : -4.1%	0.48	i
- c1coc(CNc2nc3ccccc3n2CCN2CCOCC2)c1
 : -7.1%	0.75	i
- CCCCNC(=O)c1nnn(-c2ccccc2)c1N
 : -5.7%	1.2	i
- N#Cc1cc2ccccc2nc1SCC(=O)Nc1ccccc1N1CCOCC1
 : -0.4%	-0.25	i
- C=CCn1c(SCC(O)Cn2c3ccccc3c3ccccc32)nnc1-c1ccco1 (stereo unspecified)
 : -6.9%	0.48	i
- CCOC(=O)C1CCCN(CC(=O)Nc2c(C(=O)OC)[nH]c3ccccc23)C1 (stereo unspecified)
 : -5.2%	-0.16	i
- O=S1(=O)CC(N2CCOCC2)c2ccccc21 (stereo unspecified)
 : -3.5%	0.79	i
- COc1cc(C(=O)NCC(c2cccnc2)N2CCN(C)CC2)cc(OC)c1OC (stereo unspecified)
 : -4.0%	0.74	i
- CN=Cc1nc(-c2ccccc2)oc1O
 : 2.4%	/	i
- CCc1ccc2[nH]c(=O)c(CN(Cc3ccc4c(c3)OCO4)C(=O)c3ccco3)cc2c1
 : 3.4%	0.38	i
- CCOC(=O)c1ccc(S(=O)(=O)N2CCN(S(=O)(=O)CC)CC2)cc1
 : -1.0%	-0.29	i
- CCC1Oc2ccc(C)cc2N(CC(=O)NCc2cc(OC)ccc2OC)C1=O (stereo unspecified)
 : -5.0%	-0.83	i
- CCOC(=O)C1=C(CSc2nccn2C)NC(=O)NC1c1ccc2c(c1)OCO2 (stereo unspecified)
 : -3.7%	-0.1	i
- COCCCNC(=O)CCS(=O)(=O)Cc1ccc(C)cc1
 : -1.6%	-0.29	i
- C#CCN1C(=O)C(O)(CC(=O)c2cccc(OC)c2)c2ccccc21 (stereo unspecified)
 : 7.9%	-0.55	i
- O=C(c1ccccc1F)N1CCN(c2cccc(C(F)(F)F)c2)CC1
 : -3.3%	-0.88	i
- CCC(C)N(C(=O)COC(=O)Cc1n[nH]c(=O)c2ccccc12)C1CCS(=O)(=O)C1 (stereo unspecified)
 : 3.8%	-0.59	i

# (list continues)
# Values in the order: Hsc70	WNV NS2B-NS3 inh	MT1-MMP promoter
- CCOC(=O)C1CCN(C(C)=C2C(=O)c3ccccc3C2=O)CC1
 : 7.3%	-0.08	i
- CCn1c(CNc2nc3ccccc3n2C(C)C)nc2ccccc21
 : 4.4%	/	i
- O=C(Nc1cccc(F)c1)c1cccc(S(=O)(=O)N2CCOCC2)c1
 : 0.9%	-0.77	i
- CCOC(=O)c1sc(=S)n(-c2ccc(F)c(F)c2)c1N
 : 3.3%	0.49	i
- CCn1c(C(C)NC(=O)c2cccs2)nc2ccccc21 (stereo unspecified)
 : 4.7%	1.1	i
- Cc1cc2c(c(=O)o1)C1(C(=O)N(CC(=O)O)c3ccccc31)C(C#N)=C(N)O2 (stereo unspecified)
 : 24%	-0.52	i
- Cc1ccc(N(CC(=O)O)S(=O)(=O)c2cccc3nonc23)cc1
 : -10%	-0.62	i
- COc1ccc(C(=O)OCC(=O)NCC2CCCCC2)cc1S(=O)(=O)N1CCCc2ccccc21
 : 1.3%	/	i
- O=C(CSc1ccccc1)NCc1ccco1
 : -0.2%	/	i
- Cc1sc2nc(CN3CCOCC3)nc(NCCc3ccccc3)c2c1C
 : 5.1%	/	i
- Cc1nn(-c2ccc(C(=O)Nc3nnc(C4CC4)s3)cc2)c(C)c1Cl
 : -3.3%	-1	i
- Cc1nc2ccc(NC(=O)Cc3cccs3)cc2s1
 : -8.5%	-0.0046	i
- COc1ccc(-n2c(Cc3cccn3C)nnc2SCC(=O)N2CCCC2)cc1
 : -3.7%	0.02	i
- CCCn1c(SCC(=O)NC23CC4CC(CC(C4)C2)C3)n[nH]c1=O
 : 0.2%	/	i
- CCC(=O)N1CCn2c1nc1ccccc12
 : -4.1%	/	i
- CCN1CCN(CC(O)COc2cccc(OC)c2)CC1 (stereo unspecified)
 : 3.0%	-0.01	i
- CCOc1ccc(S(=O)(=O)Nc2ccc(O)c(Sc3ncn[nH]3)c2)cc1
 : -0.4%	/	i
- CCCCOc1ccc(C(=O)N2CCC(C)CC2)cc1
 : -1.5%	-0.76	i
- COC(=O)c1[nH]c2cc(OC)ccc2c1NC(=O)CN1CCC(C(N)=O)(N2CCCCC2)CC1
 : -0.9%	0.4	i
- COC(=O)CSc1nnc(-c2sc3cc(OC)ccc3c2Cl)n1C
 : 9.0%	0.61	i
- O=C(C1CC(c2ccc(F)cc2)=NO1)N1CCN(Cc2ccccc2)CC1 (stereo unspecified)
 : 1.0%	-1.3	i
- COc1ccc(NC(=O)Cc2nn(C)c(=O)c3ccccc23)c2ncccc12
 : -7.1%	0.89	i
- NC(=O)CSc1nnc(CNc2ccc(F)cc2)n1CC1CCCO1 (stereo unspecified)
 : 0.0%	-0.02	i
- CSc1ccc(S(=O)(=O)Nc2ccc(S(=O)(=O)Nc3ccc(C)cc3)cc2)cc1
 : 2.7%	/	i
- Cc1cccc(NCc2cc(Cl)cc(Cl)c2O)n1
 : 0.7%	/	i
- CCCCOCCCNc1ncnc2c1[nH]c1ccccc12
 : 2.7%	/	i
- COc1ccc(C(=O)OCCN=C2NS(=O)(=O)c3ccccc32)cc1OC
 : 0.8%	-1.3	i
- CCCc1nc2ccccc2c(=O)n1/N=C/c1ccc(O)cc1O
 : 2.8%	-0.55	i
- CCOC(=O)c1c(C)n(C)c2ccc(OC(C)=O)cc12
 : 0.7%	/	i
- COc1ccc(Nc2nc(N)nc(C(F)(F)F)n2)c(OC)c1
 : -5.3%	-0.08	i
- Cc1ccccc1N1CCN(S(=O)(=O)c2ccc3oc(=O)ccc3c2)CC1
 : -1.3%	1.6	i
- COc1cc(NS(=O)(=O)c2ccc(NC(=S)NC(=O)CC(C)C)cc2)nc(OC)n1
 : -1.6%	/	i
- CCCCNC(=O)CCn1c(=O)c2ccccc2n(CC(=O)Nc2ccccc2OCC)c1=O
 : 4.7%	1.6	i
- O=C(Nc1ccccc1)c1ccn[nH]1
 : 2.6%	/	i
- CC(C(=O)N1CCCc2ccccc21)N1CCN(S(=O)(=O)c2ccccc2F)CC1 (stereo unspecified)
 : 0.5%	/	i
- O=C(Nc1ccc2c(c1)OCO2)c1cccc(Cl)c1
 : 0.6%	0.86	i
- Clc1ccc(-n2nnnc2-c2ccccc2)cc1Cl
 : 1.3%	-1.7	i
- c1coc(CN(Cc2cccs2)Cc2nnnn2C2CCCCC2)c1
 : -0.9%	-0.2	i
- CCOC(=O)c1c(C)[nH]c(C(=O)CSc2nnnn2-c2ccccc2)c1C
 : 1.8%	0.27	i

# Screening results (PubChem BioAssay)
